Screening results deposited in PubChem BioAssay by National Center for Advancing Translational Sciences (NCATS).
gsp antagonist: antagonizes gsp, the McCune-Albright syndrome mutation; gsp-mutant cells, cAMP HTRF, 30 min; control for the full effect not named in the record; Potency, µM (highest dose often 76.9 µM), without a hit: at the top dose activity change, negative = inhibition, hits mostly inhibitors; 0.4% of 340,000 active; active = falling curve of any shape with a large fitted effect; inconclusive = falling curve, mostly with a smaller effect; inactive = flat or rising curve; cell line not stated here;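 further: intracellular cAMP measured with PDE inhibitor Ro 20-1724 present during compound exposure; potency means the concentration at half of the fitted maximal effect; on the % scale 0 is the no-effect control and ±100 the full control effect; nearly all actives have a fitted effect of over 65% in size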
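G418-selected cells were plated in DMEM/10% FBS for 16-24 h at 37C, then treated with compounds plus the PDE inhibitor […] (300 uM solution added) for 30 min at 37C. Intracellular cAMP was measured by HTRF after 30 min lysis at room temperature.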
TRPML1 inh: blocks the human TRPML1 channel; activity change, negative = inhibition, % (concentration not given with the values); AID 624415; Q9GZU1; TRPML1-inducible cells, Ca2+ dye fluorescence, FDSS; stronger effect = lower value; inhibition of EC80 agonist-evoked calcium signal; 0.02% of 390,000 active; in the data active means activity change below about -50%; inconclusive means about -30% to -50%; inactive means above about -30%;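 further: stimulus is agonist 54-4 at its EC80 concentration; on the % scale 0 is the no-effect control and ±100 the full control effect; compound concentration not given in the record; the text of the record puts the active cut at -80%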
Target sequence (Q9GZU1 whole entry, looked up): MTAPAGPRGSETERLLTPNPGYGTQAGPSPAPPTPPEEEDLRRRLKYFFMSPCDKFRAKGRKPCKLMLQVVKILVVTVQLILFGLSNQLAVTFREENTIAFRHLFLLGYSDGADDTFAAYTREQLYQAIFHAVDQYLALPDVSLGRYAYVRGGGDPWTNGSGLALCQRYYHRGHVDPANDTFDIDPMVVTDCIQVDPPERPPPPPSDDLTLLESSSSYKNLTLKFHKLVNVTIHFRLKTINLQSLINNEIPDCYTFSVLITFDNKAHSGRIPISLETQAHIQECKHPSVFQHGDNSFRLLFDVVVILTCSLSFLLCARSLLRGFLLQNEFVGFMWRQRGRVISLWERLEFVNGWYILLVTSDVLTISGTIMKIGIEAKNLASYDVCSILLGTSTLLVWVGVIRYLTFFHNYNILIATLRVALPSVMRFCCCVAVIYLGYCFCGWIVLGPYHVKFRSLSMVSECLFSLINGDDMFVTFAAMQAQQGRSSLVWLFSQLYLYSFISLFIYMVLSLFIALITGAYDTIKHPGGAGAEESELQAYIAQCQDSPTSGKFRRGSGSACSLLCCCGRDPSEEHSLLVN
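Calcium fluorescence in TRPML1-DL cells induced overnight with Tet: a 110 s read after compound pin addition, then a 110 s antagonist read after challenge with 54-4 at 4 uM final (EC80).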
Menin MLL FP FL: menin-MLL binding inhibition, fluorescein peptide | FP activity change, % at 61.4 µM | Fluorescence polarization, fluorescein-MLL peptide displacement from menin | 290,000 tested, under 10 active; inconclusive = falling polarisation curve, or a change in total fluorescence; inactive = total fluorescence flat and polarisation flat or rising; no compound was filed as active; the % refers to the polarisation; negative = inhibition;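 further: % of control where 0% means no effect; inhibitors lower the polarisation; unlabelled MLL peptide was the positive control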
ClpP mod: qHTS Assay for Activators of ClpP. AID 651965, 2013. purified B. subtilis ClpP, FRET peptide cleavage, 20 min. 1.9% of 340,000 active. Potency, µM (titrated, usually from 57.5 µM), for inactives: at the top dose activity change, negative = active. ATP-dependent Clp protease proteolytic subunit (Bacillus subtilis (strain 168)), P80244; active = well fitted falling curve with a large enough effect; inconclusive = small, poorly fitted or top-dose-only effect; inactive = no such curve, though single readings can be large or run the other way; further: potency means the concentration at half of the fitted maximal effect; the source files actives as falling curves though it sought activators and does not explain the sign; nearly all actives have a fitted effect of over 65% in size; many hits overshoot -100%
Target sequence (P80244 whole entry, looked up): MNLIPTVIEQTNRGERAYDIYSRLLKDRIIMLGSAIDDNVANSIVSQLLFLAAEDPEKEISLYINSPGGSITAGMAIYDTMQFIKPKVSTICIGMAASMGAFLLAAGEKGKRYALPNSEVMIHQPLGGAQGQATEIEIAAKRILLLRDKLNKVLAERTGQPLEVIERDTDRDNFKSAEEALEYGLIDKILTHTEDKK
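Buffer: 100 mM Tris/HCl pH8, 100 mM KCl, 0.05% low protease BSA, 2.5% glycerol, 0.01% Tween-20. ClpP 10 microg/mL final; 20 min RT; delta FRET normalized to ADEP and DMSO controls.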
TRPML1 agonist: agonists of human TRPML1 channel. Q9GZU1. TRPML1-expressing cells, Ca2+ dye fluorescence, FDSS; host cell line not named in the record; reference of the full effect not given here. activation, % (concentration not given with the values). 0.12% of 410,000 active. AID 624414; in the data active = activation above about 50%; inconclusive = about 30% to 50%; inactive = below about 30%; further: 0% is about no effect; the text of the record puts the active cut at 80%
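TRPML1-DL cells, Tet-induced overnight (~16 h, 37 degrees C), loaded 45-90 min at room temperature with Ca8 no-wash calcium dye plus quencher. FDSS fluorescence: 10 s baseline, compound pin-transfer, 110 s agonist read, then EC80 54-4 (4uM final) and 110 s antagonist read.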
gsp ag: gsp mutant agonism | gsp mutant cells, cAMP HTRF, 30 min; control for the full effect not named in the record | Potency, µM (series often up to 76.9 µM), without a hit: at the top dose activation (cAMP increase), actives largely listed as activators | 0.13% of 340,000 active; active = well fitted activation curve with a large enough effect; inconclusive = small, poorly fitted or top-dose-only effect, or another doubt; inactive = no such curve, though single readings can be large or run the other way; cell line not stated here;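 further: phosphodiesterase inhibitor Ro 20-1724 added with compounds to block cAMP breakdown; potency means the concentration at half of the fitted maximal effect; nearly all actives have a fitted effect of over 60% in size; about a fifth of the inactives were tested at one dose only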
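Cells in DMEM/10% FBS with G418 were pretreated with compounds in DMSO plus […] (300 uM stock) for 30 min at 37C. cAMP was measured by HTRF (cAMP-d2 plus anti-cAMP antibody-K) after 30 min at room temperature.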
* = called active by the depositor; & = joins results of further samples; [ ] = dose if it differs, or a comment.

`Cc1cc(C)cc(NC(=O)COC(=O)c2n[nH]c3ccccc23)c1` gave gsp antagonist 10µM*, TRPML1 inh -2, Menin MLL FP FL -2.2, TRPML1 agonist 4.4 and gsp ag -25%[15.4 µM].
CC1CCN(c2ccc(C(=O)NCc3cccs3)cn2)CC1 was read as gsp antagonist -2%, TRPML1 inh 9, Menin MLL FP FL 0.2, ClpP mod -3.8%, TRPML1 agonist -0.2 and gsp ag 9%.
CCOc1ccc(NC(=O)C(CC(=O)O)Cc2ccc(C)cc2)cc1 (stereo unspecified) was read as gsp antagonist -2%, TRPML1 inh 1, Menin MLL FP FL -0.6, ClpP mod 0.1%, TRPML1 agonist 0.3 and gsp ag 8%[15.4 µM].
Screening COc1ccc(CNS(=O)(=O)c2cc3c(cc2C)N(C)CCO3)cc1 returned gsp antagonist 11%, TRPML1 inh 43&-18, Menin MLL FP FL -4.6, ClpP mod -0.9%&-6.8%, TRPML1 agonist 0.1&0.7 and gsp ag -52%.
Screening COC(=O)C1(C(=O)OC)NOC2C(=O)N(c3ccccc3)C(=O)C21 (stereo unspecified) returned gsp antagonist 4%, TRPML1 inh 7, Menin MLL FP FL -0.7, ClpP mod -1.0%, TRPML1 agonist 0.6 and gsp ag -19%.
Screening COc1cc(CCC(=O)OCC(=O)N(CCC#N)c2ccccc2)cc(OC)c1OC returned gsp antagonist 11%, TRPML1 inh -3, Menin MLL FP FL 1.2, TRPML1 agonist -0.1 and gsp ag -52%[inhibitor].
Screening CCOC(=O)N1CCN(S(=O)(=O)CCNC(=O)c2ccc(OC)cc2)CC1 returned gsp antagonist 13%, TRPML1 inh 5, ClpP mod -0.7%, TRPML1 agonist 0.1 and gsp ag -28%.
`CC(C)NS(=O)(=O)c1ccc(NC(=O)C(C)Oc2ccc(C(=O)c3ccccc3)cc2)cc1` (stereo unspecified) gave gsp antagonist -6%, TRPML1 inh -3, ClpP mod -1.3%, TRPML1 agonist 28 and gsp ag 5%[15.4 µM].
Screening COc1ccc2c(c1)c(C(O)CN1CCN(Cc3ccc4c(c3)OCO4)CC1)c(C)n2C (stereo unspecified) returned gsp antagonist -5%, TRPML1 inh 21, Menin MLL FP FL inconclusive, ClpP mod inconclusive, TRPML1 agonist -0.3 and gsp ag inconclusive.
For O=C(NCCc1ccc(Cl)cc1)c1ccc2c(c1)N(Cc1ccc(Cl)cc1)C(=O)CS2 the results were TRPML1 inh -3, ClpP mod -0.4% and TRPML1 agonist 0.2.
`CN(C)c1nc(N)nc(CSc2nnnn2-c2ccc(Cl)cc2)n1` gave TRPML1 inh 5, ClpP mod 0.5% and TRPML1 agonist 1.1.
Screening COC(=O)CNC(=O)C(C)NC(=O)OCc1ccccc1 (stereo unspecified) returned gsp antagonist 16%, TRPML1 inh -21, Menin MLL FP FL 1.1, ClpP mod 2.6%, TRPML1 agonist -0.6 and gsp ag -28%.
`O=C(NC(Cc1ccccc1)C(=O)O)/C(=C\c1ccc(Br)cc1)NC(=O)c1ccc(Br)o1` (stereo unspecified) gave gsp antagonist 3%, TRPML1 inh -10, Menin MLL FP FL 5.1, TRPML1 agonist 0.0 and gsp ag -43%[inhibitor].
For CC(NC(=O)c1ccc(F)cc1Cl)C1CC2CCC1C2 (stereo unspecified) the results were gsp antagonist 17%, TRPML1 inh -4, Menin MLL FP FL 6.4, TRPML1 agonist -0.6 and gsp ag 1%[15.4 µM].
Screening COc1cc(Br)c(C2CC(=O)Nc3cc(OC)c(OC)cc32)cc1OC (stereo unspecified) returned gsp antagonist -11%, TRPML1 inh -7, Menin MLL FP FL 5.6, ClpP mod 0.6%, TRPML1 agonist -0.2 and gsp ag -46%[inhibitor].
For Cc1nnc(NS(=O)(=O)c2ccc(F)cc2)s1 the results were gsp antagonist -1%, TRPML1 inh -8, TRPML1 agonist -0.2 and gsp ag -65%[inhibitor].
For O=C1NC(=O)C(c2cn(-c3ccccc3)nc2-c2ccc(F)cc2)N1 (stereo unspecified) the results were gsp antagonist -2%, TRPML1 inh -12, Menin MLL FP FL 1.3, ClpP mod -3.2%, TRPML1 agonist -0.7 and gsp ag 2%.
O=C(Nc1nc(-c2ccc3c(c2)OCCO3)cs1)c1ccc(S(=O)(=O)N2CCCCC2)cc1 was read as gsp antagonist -5%, TRPML1 inh 2, Menin MLL FP FL 4.6, ClpP mod -5.8%, TRPML1 agonist -0.1 and gsp ag -3%.
CCc1nc(Nc2ccc3c(c2)OCCO3)c2oc3ccccc3c2n1 was read as gsp antagonist -6%, TRPML1 inh 0, Menin MLL FP FL 4.7, ClpP mod -5.5%, TRPML1 agonist 1.8 and gsp ag -22%.
`O=C(O)/C=C/C(=O)c1ccc2c(c1)NC(=O)CO2` gave gsp antagonist -2%, TRPML1 inh -4, Menin MLL FP FL 2.4, TRPML1 agonist -0.2 and gsp ag 17%[15.4 µM].
O=C(COc1ccccc1)Nc1ccc2c(c1)C(=O)N(CC1CCCO1)C2=O (stereo unspecified) was read as gsp antagonist -3%, TRPML1 inh 3, Menin MLL FP FL -1.4, ClpP mod -1.2%, TRPML1 agonist 0.3 and gsp ag 1%[15.4 µM].
`COc1cc(OC)cc(-c2c(-c3cccs3)c3cc(-c4cnc(OC)nc4)ccc3n2C)c1` gave gsp antagonist -28%, TRPML1 inh 5, ClpP mod inconclusive, TRPML1 agonist -0.5 and gsp ag 25%.
`CN(Cc1ccon1)Cc1cn(C)nc1-c1cccc(Cl)c1` gave gsp antagonist 2%, TRPML1 inh -13, Menin MLL FP FL -0.9, TRPML1 agonist 0.3 and gsp ag -3%[15.4 µM].
`C/C(=N\O)C(C)(C)Nc1cccc(Br)c1` gave gsp antagonist 1%, TRPML1 inh 42, Menin MLL FP FL 4.9, ClpP mod 0.6%, TRPML1 agonist -0.1 and gsp ag inconclusive.
FC(F)(F)c1cnc(Oc2cccc3ccccc23)c(Cl)c1 was read as gsp antagonist -5%, TRPML1 inh -8, Menin MLL FP FL 2.2, ClpP mod 2.0%, TRPML1 agonist 3.2 and gsp ag -18%.
Screening CCC(O)(CC)C(=O)N/N=C/c1cc(Br)cc(Br)c1O returned gsp antagonist -8%, TRPML1 inh 10, Menin MLL FP FL 1.7, TRPML1 agonist 1.4 and gsp ag -2%[15.4 µM].
Screening CCN(CC)CCCC(C)NC(=O)c1cc(=O)c2ccccc2o1 (stereo unspecified) returned gsp antagonist 12%, TRPML1 inh -1, Menin MLL FP FL -0.7, TRPML1 agonist 0.3 and gsp ag -7%[15.4 µM].
`Cc1ccc(OCC(=O)Nc2ccc(Cl)cc2)c([N+](=O)[O-])n1` gave gsp antagonist 2%, TRPML1 inh -1, ClpP mod 0.8%, TRPML1 agonist 0.3 and gsp ag -6%.
Screening CCCc1c(C(=O)N/N=C/c2ccc(OCc3ccccc3)cc2)nnn1-c1nonc1N returned TRPML1 inh -10, ClpP mod -6.7%, TRPML1 agonist -0.2 and gsp ag -17%.
CCOC(=O)N1CCN(C(=O)c2ccc(S(=O)(=O)Nc3ccc(C)cc3)cc2)CC1 was read as gsp antagonist -7%, TRPML1 inh 2, ClpP mod 115%, TRPML1 agonist 2.0 and gsp ag -8%.
For O=C(Cc1coc2ccc3ccccc3c12)Nc1nccs1 the results were gsp antagonist -6%, TRPML1 inh 3, Menin MLL FP FL inconclusive, ClpP mod 3.6%, TRPML1 agonist 2.2 and gsp ag -3%.
Screening O=C(c1cccs1)N(Cc1cccnc1)c1nc2ccc(F)cc2s1 returned TRPML1 inh 18, ClpP mod 92% and TRPML1 agonist 1.4.
For CCOC(=O)c1ccc(NC(=S)NN2CCN(C)CC2)cc1 the results were gsp antagonist 5%, TRPML1 inh 2, Menin MLL FP FL 1.3, ClpP mod -0.6%, TRPML1 agonist 0.0 and gsp ag 11%.
COC(=O)c1ccccc1S(=O)(=O)N1CCC(C(=O)OCC(=O)NCC(F)(F)F)CC1 was read as gsp antagonist -1%, TRPML1 inh -3, Menin MLL FP FL -0.3, TRPML1 agonist 0.4 and gsp ag -13%.
For C/C=C\C=C/C(=O)Nc1cccc(C2=NOC3(C2)C[C@H](C(N)=O)N(C(=O)CC)C3)c1 (stereo partly specified) the results were gsp antagonist 3%, TRPML1 inh 21, Menin MLL FP FL -0.9, ClpP mod -0.7%, TRPML1 agonist -0.4 and gsp ag inconclusive.
For COc1cccc(NC(=O)CN2C(=O)NC(C)(C3CC3)C2=O)c1 (stereo unspecified) the results were gsp antagonist 4%, TRPML1 inh 24, ClpP mod -1.2%, TRPML1 agonist 0.0 and gsp ag 21%.
`O=C(c1ccc(NS(=O)(=O)c2cccc(F)c2)cc1)N1CCCCC1` gave gsp antagonist -8%, TRPML1 inh -13, ClpP mod 0.3%, TRPML1 agonist -0.5 and gsp ag 7%.
Screening Cc1ccc(NC(=O)C2CCC2)cc1S(=O)(=O)N1CCCCCC1 returned gsp antagonist -7%, TRPML1 inh -3, TRPML1 agonist -0.4 and gsp ag -21%[15.4 µM].
Screening Cc1c(S(=O)(=O)c2ccccn2)c(N)n(Cc2ccccc2Cl)c1C returned gsp antagonist 3%, TRPML1 inh 2, Menin MLL FP FL 6.6, TRPML1 agonist -0.2 and gsp ag 7%[15.4 µM].
CN(/N=C/c1ccc(Cl)cc1Cl)c1ncc(Cl)cc1C(F)(F)F was read as gsp antagonist 8%, TRPML1 inh -12, Menin MLL FP FL 1.5, ClpP mod -1.4%, TRPML1 agonist 0.8 and gsp ag 19%.
For COc1ccc(OC)c(-c2cc(C3CCN(c4ncccc4[N+](=O)[O-])CC3)[nH]n2)c1 the results were gsp antagonist 18%, TRPML1 inh 8, Menin MLL FP FL -0.6, ClpP mod -0.7%, TRPML1 agonist 0.7 and gsp ag 32%.
`COc1cc(OC)cc(-c2c(-c3cccs3)c3cc(-c4ccc5cc[nH]c5c4)ccc3n2C)c1` gave gsp antagonist 2%, TRPML1 inh -10, ClpP mod 21%, TRPML1 agonist -1.2 and gsp ag 5%.

As a working copy, 3 of the compounds above:
Screening Cc1c(S(=O)(=O)c2ccccn2)c(N)n(Cc2ccccc2Cl)c1C returned gsp antagonist 3%, TRPML1 inh 2, Menin MLL FP FL 6.6, TRPML1 agonist -0.2 and gsp ag 7%[15.4 µM].
CN(/N=C/c1ccc(Cl)cc1Cl)c1ncc(Cl)cc1C(F)(F)F was read as gsp antagonist 8%, TRPML1 inh -12, Menin MLL FP FL 1.5, ClpP mod -1.4%, TRPML1 agonist 0.8 and gsp ag 19%.
For COc1ccc(OC)c(-c2cc(C3CCN(c4ncccc4[N+](=O)[O-])CC3)[nH]n2)c1 the results were gsp antagonist 18%, TRPML1 inh 8, Menin MLL FP FL -0.6, ClpP mod -0.7%, TRPML1 agonist 0.7 and gsp ag 32%.
